Assay outcomes (PubChem)
Polio RdRp inh: poliovirus RdRp elongation inhibitors, primary screen, biochemical, fluorescence polarization, total intensity | Genome polyprotein (Poliovirus type 1 (strain Mahoney)), P03300 | poliovirus polymerase elongation; hits give low values | 0.66% of 150,000 active | % elongation, % (compound at 16.7 µg/mL) | AID 588519, 2011; in the data active = % elongation below about 90%; also: some results filed as inactive read as strong as hits
Target sequence (P03300 1749-2209 limits assumed): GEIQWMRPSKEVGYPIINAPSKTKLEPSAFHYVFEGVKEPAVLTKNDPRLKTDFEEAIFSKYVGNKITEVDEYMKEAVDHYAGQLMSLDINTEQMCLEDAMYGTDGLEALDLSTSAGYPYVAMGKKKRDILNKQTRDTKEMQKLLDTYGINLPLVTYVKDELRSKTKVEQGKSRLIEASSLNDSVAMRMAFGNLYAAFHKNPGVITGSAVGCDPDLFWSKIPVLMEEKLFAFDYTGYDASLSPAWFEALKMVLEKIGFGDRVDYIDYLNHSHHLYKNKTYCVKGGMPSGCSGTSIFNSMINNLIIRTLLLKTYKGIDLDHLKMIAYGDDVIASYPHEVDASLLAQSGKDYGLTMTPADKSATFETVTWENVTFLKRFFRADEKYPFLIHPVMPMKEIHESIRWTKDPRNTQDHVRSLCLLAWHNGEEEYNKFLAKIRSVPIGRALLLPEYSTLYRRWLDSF
Polio RdRp inh intensity: further read-out of Polio RdRp inh, marked with its call; % elongation; measured here: total intensity read-out; formula for this scale not given here;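 total fluorescence in place of polarization; lower means less elongation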
* hit, by the source's call. Some of the compounds tested, so the mix of outcomes need not match the whole.

#	SMILES	Polio RdRp inh	Polio RdRp inh intensity
1	CC1(C)CC(=O)c2cc(C#N)c(=O)n(-c3ccc(Cl)cc3)c2C1	100	105
2	CCOC(=O)c1ccc(NC(=O)c2ncn(-c3ccccc3)n2)cc1	109	111
3	CCC(=O)Nc1ccccc1-c1nc2ccccc2n(CC(=O)c2ccc(C)cc2)c1=O	104	107
4	CCCCN(CC)CCNC(=O)c1cc2c(=O)n(CC)c3ccccc3c2s1	96	100
5	O=C(C1COc2ccccc2O1)N(Cc1cccnc1)c1nc2c(Cl)cccc2s1 (stereo not given)	108	112
6	Cc1ccc(NC(=O)c2cc(S(=O)(=O)N3CCc4ccccc43)ccc2F)cc1Cl	105	109
7	COc1ccc(/C=C/C(=O)Nc2nc(-c3cccs3)ns2)cc1	108	111
8	CC(C)(C)c1ccc(-c2nnc(-c3ccccc3NC(=O)c3ccc(F)cc3F)o2)cc1	106	103
9	CC(C)NC(=O)CN1C(=O)c2cccnc2Sc2ccccc21	103	105
10	C=Cc1ccc(Cn2c(C(=O)O)c(CNC3CCCCC3)c3ccc(C)cc32)cc1	106	112
11	CCC(C(=O)Nc1cccc(Cl)c1C)n1nc(-c2ccc(C)cc2)ccc1=O (stereo not given)	113	111
12	O=S(=O)(NCC(c1ccco1)N1CCOCC1)c1ccc(Br)cc1 (stereo not given)	108	113
13	COc1ccc(OC)c(NC(=O)c2nc(S(=O)(=O)Cc3ccc(F)cc3)ncc2Cl)c1	107	111
14	Cc1ccc(C)c(NC(=O)Cn2c(=O)n(Cc3ccc4c(c3)OCO4)c(=O)c3ccc(C(=O)NC4CCCCC4)cc32)c1	103	105
15	COc1ccc(NC(=O)c2cnc(Nc3ccc(C)c(Cl)c3)c3ccccc23)cc1OC	106	105

Additional compounds follow:
#	SMILES	Polio RdRp inh	Polio RdRp inh intensity
16	Cc1noc(Cn2c(=O)c3ccccc3n(CC(=O)Nc3ccc(C(C)C)cc3)c2=O)n1	107	101
17	CCOC(=O)Cc1ccc(NC(=O)n2ncc3c(C)cccc32)cc1	112	113
18	Cc1cc(C)n(CCc2nc3c4ccccc4nc(SCc4ccc(Cl)cc4)n3n2)n1	111	115
19	Cc1cc(C)c(S(=O)(=O)Nc2ccc(-c3ccc(N4CCC(C)CC4)nn3)cc2)cc1C	106	107
20	Cc1ccc(CNC(=O)C2CCN(S(=O)(=O)N3CCCCC3)CC2)cc1	111	114
21	CCc1ccc(NC(=O)Cn2cc(S(=O)(=O)c3ccc(F)cc3)c(=O)c3cc(OC)ccc32)cc1	109	110
22	O=C(CN(c1ccc(Cl)c(C(F)(F)F)c1)S(=O)(=O)c1ccccc1)N1CCc2ccccc2C1	110	112
23	CC(C)COC(=O)Cn1nnc2sc(-c3ccccc3)cc2c1=O	105	110
24	Cc1ccc2nc(Nc3cccc(Cl)c3C)c(-n3nc(C)cc3C)nc2c1	110	109
25	Cc1c(C(=O)N2CCC(C)CC2)c(S(=O)(=O)Nc2cccc(C(F)(F)F)c2)c(C)n1C	113	112
26	CC(C)Oc1ccc(C(=O)N2CCN(CCc3ccccn3)CC2)cc1	103	99
27	CCN(CC)S(=O)(=O)c1ccc2c(c1)N(CC(=O)N1CCN(c3cccc(Cl)c3)CC1)C(=O)CO2	101	107
28	CC(C)(C)OC(=O)N1CCC(c2c(C(=O)N3CCN(C(=O)c4ccco4)CC3)cnn2-c2ccccc2Cl)CC1	98	106
29	Cc1ccc(S(=O)(=O)c2c(O)cc(C)c(NS(=O)(=O)c3ccc(Br)cc3)c2C)cc1	98	103
30	COc1ccc(NC(=O)CN(c2cccc(C)c2C)S(=O)(=O)c2ccccc2)cc1OC	105	107

The final 4 compounds of the section before come first, to join the parts:
#	SMILES	Polio RdRp inh	Polio RdRp inh intensity
27	CCN(CC)S(=O)(=O)c1ccc2c(c1)N(CC(=O)N1CCN(c3cccc(Cl)c3)CC1)C(=O)CO2	101	107
28	CC(C)(C)OC(=O)N1CCC(c2c(C(=O)N3CCN(C(=O)c4ccco4)CC3)cnn2-c2ccccc2Cl)CC1	98	106
29	Cc1ccc(S(=O)(=O)c2c(O)cc(C)c(NS(=O)(=O)c3ccc(Br)cc3)c2C)cc1	98	103
30	COc1ccc(NC(=O)CN(c2cccc(C)c2C)S(=O)(=O)c2ccccc2)cc1OC	105	107
31	CCN(Cc1ccccc1)C(=O)CN1C(=O)CSc2ccc(S(=O)(=O)N(CC)CC)cc21	106	106
32	CCc1cccc(NC(=O)CCS(=O)(=O)c2cc(Br)cc3c2N(C(C)=O)CC3)c1	107	105
33	CN(C)c1ccc(/C=C(\C#N)c2nc3ccccc3c(=O)[nH]2)cc1	142	146
34	CCCN(C(=O)c1cc(S(=O)(=O)N2CCc3ccccc32)cn1C)c1ccc(OCC)cc1	101	106
35	COc1cc(/C=C(\C#N)c2nc3ccccc3n2C)cc(OC)c1OC	105	107
36	CCN(Cc1ccccc1)C(=O)Nc1ccc2c(c1)N(C)C(=O)c1ccccc1S2	104	105
37	COC(=O)CN1C(=O)CSc2ccc(S(=O)(=O)N3CCOCC3)cc21	112	102
38	O=c1oc2ccccc2cc1-c1cn2cc(Cc3ccc(Br)cc3)sc2n1	103	105
39	COc1ccc(NC(=O)Cn2c(=O)n(CCc3ccccc3)c(=O)c3c4c(sc32)CCCC4)cc1	106	109
40	CCN(c1ccc(C)cc1C)S(=O)(=O)c1nnc(NC(=O)c2ccccc2OC)s1	104	107
41	COc1ccc(-c2cc(C(=O)Oc3cccc(C)c3)c3cc(C)ccc3n2)cc1	108	108
42	CCc1nc2ccc(C(=O)NCc3ccc(N(C)C)cc3)cc2nc1CC	97	104
43	Cc1ccc(CNC(=O)Cn2c(=O)n(Cc3ccccc3)c(=O)c3sc4ccccc4c32)cc1	105	105
44	COC(=O)CSc1ncc2c(n1)-c1ccccc1N(Cc1ccc(Cl)cc1)S2(=O)=O	105	107
45	Cc1ccc2c(c1)c(=O)c1ccccc1n2CCCC(=O)Nc1ccc(C)c(C)c1	103	108

The listing continues:
#	SMILES	Polio RdRp inh	Polio RdRp inh intensity
46	COC(=O)c1cc2sc(Cl)cc2n1CC(=O)Nc1cc(OC)cc(OC)c1	107	114
47	COc1ccccc1CNC(=O)Cn1c(-c2cccs2)cc2cc(F)ccc21	115	114
48	COc1ccccc1NC(=O)c1c(NCc2sccc2C)sc2c1CCCCC2	111	120
49	Cc1c2cnn(-c3ccccc3)c(=O)c2c(C)n1CC(=O)NCc1ccccc1Br	110	113
50	Cc1nnc(NC(=O)c2cccn(Cc3cccc(F)c3)c2=O)s1	108	105
51	O=C(NCC1CCN(Cc2ccccc2Cl)CC1)c1cc2ccc3cccnc3c2[nH]1	114	117
52	CCOC(=O)c1cccc(NC(=O)Cn2c(=O)nc(-c3ccccc3)c3ccccc32)c1	99	108
53	Cc1ccc(N2CCn3c2nc2c3c(=O)n(C/C=C/c3ccccc3)c(=O)n2C)cc1C	104	112
54	CC1CCN(S(=O)(=O)c2ccc3c(ccn3CCC(=O)NCc3ccccc3F)c2)CC1	110	115
55	COc1ccc(OCC(=O)Nc2ccc3c(c2)N(C)C(=O)c2ccccc2S3)cc1	101	109
56	COc1ccccc1N1CCN(CCCNC(=O)c2cnn(-c3ccccc3Cl)c2C2CCN(C(=O)OC(C)(C)C)CC2)CC1	102	105
57	CCCOc1cccc(C(=O)Nc2ccc(-c3nc4ccccc4o3)cc2)c1	107	113
58	CC(C)c1ccc(NC(=O)c2cc3c(=O)[nH]c4ccccc4c3n2C)cc1	104	108
59	CCCC(=O)n1nc(-c2cccnc2)nc1NCc1ccccc1	104	97
60	Cc1ccc(S(=O)(=O)N2CCCc3cc(NS(=O)(=O)c4ccc(F)cc4)ccc32)cc1	111	118

Next part
#	SMILES	Polio RdRp inh	Polio RdRp inh intensity
61	COc1ccc(-c2oc3ncn4nc(-c5ccccc5O)nc4c3c2-c2ccc(OC)cc2)cc1	107	109
62	Cc1ccc2nc(CN3CCN(C(=O)Nc4ccc(F)cc4)CC3)oc2c1	104	110
63	COC(=O)c1scc(-c2ccc(C)cc2)c1S(=O)(=O)N1CCN(c2ccc(C)cc2C)CC1	99	107
64	Cc1ccc(N2CCN(C(=O)C3CCC(CNS(=O)(=O)c4ccc(Br)s4)CC3)CC2C)cc1 (stereo not given)	102	104
65	CCOc1ccc(Oc2nc(NC)nc(N3CCOCC3)n2)nn1	111	109
66	Cc1c(Cl)cccc1NS(=O)(=O)c1ccc(-c2cnc(C3CC3)o2)cc1	109	98
67	Cc1ccccc1Nc1c(-c2cccc(O)c2)nc2ccc(Br)cn12	109	108
68	COc1cccc(NC(=O)Cn2c(=O)n(-c3ccccc3)c(=O)c3c4c(sc32)CCCC4)c1	109	109
69	CCOc1ccccc1NC(=O)c1ccc2c(c1)CCN2S(C)(=O)=O	107	109
70	CC(=O)Nc1ccc(NC(=O)C2CCCN2S(=O)(=O)c2ccc3c(c2)CCCC(=O)N3)cc1 (stereo not given)	109	109
71	CCOC(=O)c1noc2nc(C)n(CC(=O)Nc3ccc(OC)c(Cl)c3)c(=O)c12	110	108
72	COc1ccc(Cn2c(CCC(=O)Nc3cc(C)cc(C)c3)nc3cccnc32)cc1	103	104
73	Cc1ccc(NC(=O)C2CCN(c3nc(-c4ccc(C(C)C)cc4)no3)CC2)c(Cl)c1	109	115
74	O=C(NCCc1ccc(Cl)cc1)c1ccc2c(c1)N(Cc1c(F)cccc1Cl)C(=O)CS2	108	113
75	Cc1cccc(C)c1Nc1nc2ccccc2nc1NS(=O)(=O)c1ccccc1	100	113

Other compounds follow.
#	SMILES	Polio RdRp inh	Polio RdRp inh intensity
76	Cc1ccc(C2CCN(C(=O)Nc3ccc(Cl)cc3)C2)cc1 (stereo not given)	103	111
77	O=S(=O)(c1ccc(F)cc1)N(Cc1nc(-c2ccccc2)no1)C1CCCCC1	104	108
78	COc1ccc(N2CCN(C(=O)C3CCN(S(=O)(=O)c4cccs4)CC3)CC2)cc1	102	106
79	CCOc1ccc(OCC)c(NC(=O)C(NS(=O)(=O)c2cccs2)c2ccccc2)c1 (stereo not given)	105	107
80	Cn1c(C(=O)N2CCC(C(=O)N3CCN(c4ccccc4)CC3)CC2)cc2sccc21	107	108
81	Cc1ccc(NC(=O)CSc2nnc(-c3cc4occc4n3C)n2-c2ccccc2C)c(C)c1	108	113
82	CCCc1nc(SCc2cc(=O)c3ccc(C)c(C)c3[nH]2)n[nH]1	108	101
83	CC1CCCN(C(=O)c2cc3c(Cl)nc4ccccc4c3s2)C1 (stereo not given)	104	106
84	O=C(COc1ccccc1F)Nc1ccc(C(=O)OCc2cc(=O)n3nc(C4CC4)sc3n2)cc1	108	98
85	COc1ccc(-c2nc3cc(NC(=O)CSc4ccc(C)cc4)ccc3o2)cc1	113	112
86	Cc1cccc2c1-c1sc(C(=O)NCc3ccc(Cl)cc3)cc1CO2	105	112
87	CCOc1ccc(CN2CCc3nc(N4CCN(c5ccccn5)CC4)ncc3C2)cc1OC	13*	31*
88	CCOC(=O)N1CCN(CCC(=O)Nc2cccc(F)c2)CC1	102	106
89	CC(C)c1nn2c(=O)cc(COC(=O)Cc3ccccc3)nc2s1	106	106
90	O=C(NCc1ccccc1F)C1CCN(c2nnc(-n3cccc3)s2)CC1	107	109

Next part, starting with the last 2 of the part before.
#	SMILES	Polio RdRp inh	Polio RdRp inh intensity
89	CC(C)c1nn2c(=O)cc(COC(=O)Cc3ccccc3)nc2s1	106	106
90	O=C(NCc1ccccc1F)C1CCN(c2nnc(-n3cccc3)s2)CC1	107	109
91	CCC(Sc1nc2ncccc2o1)C(=O)Nc1ccc(OC)c(OC)c1 (stereo not given)	108	113
92	COc1ccc(-c2nn(C)c3sc(C(=O)N4CCN(c5cccc(Cl)c5)CC4)cc23)cc1OC	110	112
93	Cc1ccc(C(=O)N(Cc2ccco2)Cc2ccco2)cc1	111	112
94	COc1ccc(N(CC(=O)N2CCN(c3ccccc3F)CC2)S(=O)(=O)c2c(C)noc2C)cc1	108	106
95	Cc1cc(C)c(NC(=O)CSc2nc(=O)n(Cc3ccco3)c3c2CCC3)c(C)c1	108	113
96	CC(C)N(C(=O)Cn1cc(SCC(=O)Nc2ccccc2C(F)(F)F)c2ccccc21)C(C)C	112	108
97	Cc1ccc(NC(=O)c2sc3ncnc(N(C)C4CCCCC4)c3c2C)c(C)c1	107	112
98	COc1ccc(Nc2oc(/C=C/c3cc(OC)c(OC)c(OC)c3)nc2C#N)cc1	113	111
99	COc1ccc(CCNC(=O)CCn2c(=O)c3ccccc3n(CC(=O)Nc3cccc(C)c3)c2=O)cc1OC	105	105
100	O=C(Cc1ccc(NC(=O)N2CCSc3ncccc32)cc1)NCc1cccc(Cl)c1	103	104
101	CCc1cccc(NC(=O)CSc2nncn3c2cc2sccc23)c1	99	102
102	COc1ccccc1CNC(=O)C1CCN(S(=O)(=O)c2ccc3c(c2)CCCN3C(C)=O)CC1	110	112
103	Cc1ccc(NC(=O)c2cnc3sc(N4CCOCC4)nn3c2=O)cc1N(C)C	109	105
104	COC(=O)c1sccc1S(=O)(=O)N(CC(=O)Nc1c(C)cccc1C)c1ccc(C)c(C)c1	110	116
105	Cc1ccc(NC(=O)CSc2nc3ccccc3nc2Cc2ccccc2F)cc1F	104	108
106	CC1=C(C(=O)OCc2ccc(C)cc2)C(c2cccc(F)c2F)CC(=O)N1 (stereo not given)	108	111
107	Cc1cc(NS(=O)(=O)c2ccc3oc(=O)c4ncn(C)c4c3c2)ccc1Br	101	105
108	Cc1cn2c(=O)cc(COC(=O)c3cccc(NC(=O)COc4ccccc4C)c3)nc2s1	110	117

Exported with values under each structure: part of the list above
Below each SMILES: Polio RdRp inh | Polio RdRp inh intensity
[65] CCOc1ccc(Oc2nc(NC)nc(N3CCOCC3)n2)nn1
    111 | 109
[66] Cc1c(Cl)cccc1NS(=O)(=O)c1ccc(-c2cnc(C3CC3)o2)cc1
    109 | 98
[67] Cc1ccccc1Nc1c(-c2cccc(O)c2)nc2ccc(Br)cn12
    109 | 108
[68] COc1cccc(NC(=O)Cn2c(=O)n(-c3ccccc3)c(=O)c3c4c(sc32)CCCC4)c1
    109 | 109
[69] CCOc1ccccc1NC(=O)c1ccc2c(c1)CCN2S(C)(=O)=O
    107 | 109
[70] CC(=O)Nc1ccc(NC(=O)C2CCCN2S(=O)(=O)c2ccc3c(c2)CCCC(=O)N3)cc1 (stereo not given)
    109 | 109
[71] CCOC(=O)c1noc2nc(C)n(CC(=O)Nc3ccc(OC)c(Cl)c3)c(=O)c12
    110 | 108
